Source: PubChem BioAssay (National Center for Advancing Translational Sciences (NCATS))
VACV Venus inh = qHTS for Stage-Specific Inhibitors of Vaccinia Orthopoxvirus: Venus Reporter Primary qHTS | AID 720580, 2013 | Potency, µM (doses to about 36.5 µM), for inactives: top-dose activity change, negative = inhibition, most hits filed as inhibitors | Vaccinia virus Venus reporter expression, fluorescence | 330,000 compounds, 0.46% hits; active means well fitted inhibition curve with a large enough effect; inconclusive means small, poorly fitted or top-dose-only effect; inactive means no such curve, though single readings can be large or run the other way; tested in A549 cells; also: nearly all actives have a fitted effect of over 30% in size; inactives centre near -10
Vaccinia mCherry = qHTS for Stage-Specific Inhibitors of Vaccinia Orthopoxvirus: mCherry Reporter Primary qHTS; Vaccinia virus mCherry reporter infection, fluorescence; about a quarter of the inactives have no number; 310,000 compounds, 0.63% hits; Potency, µM (top dose mostly 36.5 µM), without a hit: at the top dose activity change, negative = inhibition, usual class: inhibitors; active = well fitted inhibition curve with a large enough effect; inconclusive = small, poorly fitted or top-dose-only effect; inactive = no such curve, though single readings can be large or run the other way; tested in A549 cells; also: nearly all actives have a fitted effect of over 35% in size; inactives centre near -10
Numbers without * were called inactive; i = inactive; u = inconclusive; x = no result given; [ ] = remark or other dose. % is scaled to controls: 0 for no effect and ±100 for the full control effect; potency is read from the fitted curve at half-maximal effect.

Order of results: VACV Venus inh, Vaccinia mCherry
> Cc1nc(N2CCC(C)CC2)c2c(C)c(C(=O)O)sc2n1
    -10%, -7%
> CCOC(=O)c1c(NC(=O)C2C3C=CC(C3)C2C(=O)O)sc2c1CCCC2 (centres undefined)
    -8%, i
> Cc1cccc(Nc2ncnc3onc(-c4ccc(F)cc4)c23)c1C
    -16%, i
> O=[N+]([O-])c1cccnc1Sc1ccc(F)cc1
    -21%[7.34 µM], i[7.34 µM]
> Cc1ccc(/C=C2\SC(=S)N(CCCC(=O)Nc3ccccn3)C2=O)cc1
    -6%, i
> FC(F)(F)c1nc(-c2ccccc2)ncc1-c1nnnn1-c1ccccc1
    -8%, i
> O=c1[nH]c(CSc2ccccn2)nc2ccccc12
    -17%, i
> O=C1CC(C(=O)Nc2ccc(Cl)cc2[N+](=O)[O-])C2(CCCCC2)O1 (centres undefined)
    -7%, -1%
> NC(=S)NNc1ccnc2cc(Cl)ccc12
    -20%, u
> Cc1ccc2[nH]c(C(=O)N3CCc4c(cnc(C)c4CNC(=O)c4ccccc4F)C3)cc2c1
    11%, 1%
> Clc1ccccc1OCc1nc(-c2ccncc2)no1
    -8%, -11%
> CCOc1ccc(-c2cc(C(=O)N3CCN(c4cccc(C(F)(F)F)c4)CC3)c3ccccc3n2)cc1
    u, u
> CC(=O)CSc1nnc(-c2ccc(S(=O)(=O)N3CCCC3)cc2)n1C
    -2%, i
> COc1cccc(NC(=O)Cc2c(O)c3ccccc3[nH]c2=O)c1
    5%, x
> C=C(C)Cn1c2ccc(NC(=O)NCC)cc2c(=O)n1C
    -7%, 2%
> CN(C(=O)CSc1nc(N)c2c3c(sc2n1)CSC(C)(C)C3)c1ccccc1
    -23%, -29%
> COc1ccc(-n2c(C)nnc2SCC(=O)Nc2ccccc2F)cc1
    6%, -6%
> COCCCn1c(SCC(=O)NCc2ccccc2)nc2c(sc3ccccc32)c1=O
    -9%, 6%
> COc1ccc(N=C2NC(=O)C(CC(=O)NCCc3ccc(OC)c(OC)c3)S2)cc1 (centres undefined)
    -14%, -1%
> Cc1ccc(-c2ccc(C3=CC(=O)CC(C)(C)C3=O)cc2)cc1
    -21%, i
> O=C(Cn1c(=S)nc2ccccn21)N1CCc2ccccc2C1
    u, i
> CN(CC(=O)Nc1ccc(Cl)cc1)C(=O)c1cc(-c2cccs2)nn1-c1ccccc1
    -21%, -8%
> Cc1cc(C)n(CCCN2CCC(C(=O)Nc3cccc(-c4cccc(F)c4)c3)CC2)n1
    u, u
> CCOC(=O)Cc1nc2nc(C)cc(C)n2n1
    -5%, -17%
> Cc1ccccc1N1CCN(C2CCCN(C(=O)c3noc4c3CCCC4)C2)CC1 (centres undefined)
    -15%, -1%
> COC(=O)[C@H](NC(=O)c1cc(-c2ccccc2)sc1N)C(C)C
    -10%, u
> O=C(CNC(=O)c1ccco1)OCN1C(=O)c2ccccc2C1=O
    22%, x
> COc1ccccc1C(=O)C1CCCN(Cc2ccc3c(c2)OCCO3)C1 (centres undefined)
    -1%, u
> COc1ccc2c(ccc[n+]2CC(=O)c2ccc(C)cc2)c1
    -9%, -1%
> Cc1ccc(CCNC(=O)C2CCCN(S(=O)(=O)c3c(C)noc3C)C2)cc1 (centres undefined)
    -13%, -28%
> CC(NC(=O)c1cc(COc2cccc(C(F)(F)F)c2)on1)c1nccs1 (centres undefined)
    -19%, -5%
> O=C(c1cc(N2C(=O)C3C4CCC(C4)C3C2=O)ccc1Cl)N1CCN(c2ccc(F)cc2)CC1 (centres undefined)
    -22%, -4%
> CCN(CC)S(=O)(=O)c1ccc2c(c1)c(=O)c(C(=O)N1CCN(c3cccc(Cl)c3)CC1)cn2C
    -10%, -18%
> CC(=O)N[C@H]1C(O)O[C@H](CO)[C@@H](O)[C@@H]1O (some centres undefined)
    -3%, -8%
> COc1cccc2cc(C(=O)OC3CCN(C)CC3)c(=O)oc12
    0%, i
> COCCNC(=O)Cn1cc(C(=O)c2ccco2)c2ccccc21
    -1%, -15%
> CC(C)[C@H]1COCCS(=O)(=O)N1Cc1ccccc1-c1ccc(F)cc1
    -6%, i
> O=C(NC1CCCCC1)c1ccc(S(=O)(=O)c2ccccc2)cc1
    -9%, -13%
> O=C(CSc1nc(Nc2ccc(F)c(F)c2)c2ccccc2n1)c1ccc(Cl)cc1
    -9%, -5%
> CCCCOc1ccc(C(=O)N(Cc2ccc(N(C)C)cc2)Cc2ccco2)cc1
    -12%, -10%
> O=C(CCn1c(=O)oc2ccccc21)Nc1ccc(N2CCOCC2)cc1
    11%, -30%
> CC(=O)N1[C@H](C)C=C[C@]1(Cc1ccccc1)C(=O)NCCc1c[nH]c2ccccc12
    -16%, -10%
> O=C(Nc1cccc(Cl)c1)N1CCN2C(=O)c3ccccc3C12c1ccccc1 (centres undefined)
    u, u
> O=C1c2ccc([N+](=O)[O-])cc2NC(c2ccco2)N1/N=C/c1ccco1 (centres undefined)
    20%, -3%
> COc1ccc(-n2nc(C(=O)NCC(=O)NCCCN3CCOCC3)c3ccccc3c2=O)cc1
    9%, -7%

Entries from the list above that have a COOH group, in the order listed:
Order of results: VACV Venus inh, Vaccinia mCherry
> Cc1nc(N2CCC(C)CC2)c2c(C)c(C(=O)O)sc2n1
    -10%, -7%
> CCOC(=O)c1c(NC(=O)C2C3C=CC(C3)C2C(=O)O)sc2c1CCCC2 (centres undefined)
    -8%, i

Some of these compounds in order of SMILES length, high to low:
Order of results: VACV Venus inh, Vaccinia mCherry
> CCN(CC)S(=O)(=O)c1ccc2c(c1)c(=O)c(C(=O)N1CCN(c3cccc(Cl)c3)CC1)cn2C
    -10%, -18%
> CC(=O)N1[C@H](C)C=C[C@]1(Cc1ccccc1)C(=O)NCCc1c[nH]c2ccccc12
    -16%, -10%
> COc1ccc(-n2nc(C(=O)NCC(=O)NCCCN3CCOCC3)c3ccccc3c2=O)cc1
    9%, -7%
> O=C1c2ccc([N+](=O)[O-])cc2NC(c2ccco2)N1/N=C/c1ccco1 (centres undefined)
    20%, -3%
> O=C(CCn1c(=O)oc2ccccc21)Nc1ccc(N2CCOCC2)cc1
    11%, -30%
> COc1cccc2cc(C(=O)OC3CCN(C)CC3)c(=O)oc12
    0%, i

Continuation.
Order of results: VACV Venus inh, Vaccinia mCherry
> CC1CCC(C(C)C)C(OC(=O)C[n+]2cccc(C(N)=O)c2)C1 (centres undefined)
    -4%, -3%
> O=C(OCc1ccc([N+](=O)[O-])cc1)c1cc([N+](=O)[O-])ccc1N1CCOCC1
    -26%, u
> COc1ccc(/C=C(/C#N)C(=O)Nc2cccc([N+](=O)[O-])c2)cc1C(=O)O
    -4%, i
> COc1ccc(-c2c3c(=O)n(C)c(=O)n(C)c3cn2-c2ccccc2O)cc1
    -13%, u
> CNc1ccc(/C=C2\COc3ccccc3C2=O)cc1[N+](=O)[O-]
    -25%, x
> O=C(NCc1ccco1)/C(=C/c1ccccc1)NC(=O)c1ccco1
    -2%, 6%
> CCOC(=O)c1cccc(NC(=O)c2cc3ccccn3n2)c1
    -6%, -11%
> Cc1nnc2sc(-c3ccccn3)nn12
    -10%, -1%
> CCOc1cccc(C(=O)NC(=S)Nc2ccc(N3CCCC3)cc2)c1
    -6%, x
> CCCCCC(=O)Nc1ccc(-c2csc(N)n2)cc1
    u, u
> CCOc1ccc(NC(=O)CN(C)C(=O)c2ccc(OCC3CCCO3)cc2)cc1OCC (centres undefined)
    -15%, i
> CC1=NN(CCC#N)C(=O)/C1=C/c1ccc(N(C)C)cc1
    5%, 1%
> COC(=O)COc1ccc(/C=N/NS(=O)(=O)c2ccccc2)cc1
    -14%, -26%
> Cc1c(-n2c(SCC(N)=O)nc3ccccc3c2=O)c(=O)n(-c2ccccc2)n1C
    -2%, i
> Nc1nnc(SCC(=O)NC2CCCCCC2)s1
    -15%, -11%
> Cc1ccc(NC(=O)CCSc2nc(C)cc(C)n2)cc1
    -10%, x
> Cn1cccc1/C=C1\C(=O)NC(=O)N(Cc2ccccc2Cl)C1=O
    -1%, i
> COc1ccc(OC)c(-n2c(C)cc(C=O)c2C)c1
    6%, 4%
> Cc1cccc(Cn2c(=O)n(CCC(=O)NCc3ccc4c(c3)OCO4)c(=O)c3sccc32)c1
    -6%, -14%
> COc1ccc(S(=O)(=O)N2CCN(CC(=O)NC(C)c3cccs3)CC2)cc1 (centres undefined)
    -11%, u
> CC(C)(C)C1CCC(OCC(O)CN2CCN(c3ccccc3)CC2)CC1 (centres undefined)
    -28%, -8%
> CCOC(=O)N1CCc2c(sc3c2c(=O)n(-c2ccc(Cl)cc2)c(=O)n3CC(=O)c2ccc(F)cc2)C1
    -11%, -16%
> O=C(COC(=O)/C=C/C(=O)OCC(=O)NC12CC3CC(CC(C3)C1)C2)NC12CC3CC(CC(C3)C1)C2
    3%, -6%
> CCOc1ccccc1NC(=O)CN1C(=O)COc2ccc(S(=O)(=O)NC3CCCC3)cc21
    -5%, -11%
> Clc1ccc2nc(-c3ccccc3)c(Cc3ccccc3)n2c1
    -4%, -18%
> CSC[C@H]1CN(c2ccccc2)C(=O)[C@@H]1CC(=O)Nc1ccccc1
    -3%, i
> CCC(C)N(CCNC(=O)c1ccc(NC2=NC3CS(=O)(=O)CC3S2)cc1)Cc1ccco1 (centres undefined)
    7%, 1%
> CC(NC(=O)COC(=O)CCNC(=O)c1ccco1)C12CC3CC(CC(C3)C1)C2 (centres undefined)
    -19%, x
> COc1ccccc1CNC(=O)Cc1csc(NC(=O)Nc2ccccc2OC)n1
    -23%, -10%
> O=C(O)CCn1ccnc1-c1ccccc1
    2%, 3%
> COC(=O)C1=C(c2ccccc2)C[C@@H]2CC[C@H]1N2C(=O)NCCNC(C)=O
    -11%, -25%
> COC(=O)c1ccc(Nc2ncnc3c2nc2n3CCCC2)cc1
    -26%, -15%
> C/C(=N\NC(=O)c1ccc(C(=O)N/N=C(\C)c2ccco2)o1)c1ccco1
    -11%, i
> CCC1CCCCN1S(=O)(=O)c1ccc(C(=O)Nc2sc3c(c2C(=O)NC)CCC3)cc1 (centres undefined)
    -18%, u
> Cn1c(-c2cccc(Br)c2)cnc1NCc1cccc(F)c1
    -17%, -12%
> Cc1cc(=O)[nH]c(N/N=C2/CCCC/C2=C\c2ccccc2)n1
    3%, u
> Cc1ccc(CSC2=Nc3ccccc3C3=NC(CCC(=O)NC4CCCCC4)C(=O)N23)cc1 (centres undefined)
    -13%, -19%
> CCCCc1ccc(NC(=O)N[C@@H](C)C(=O)O)cc1
    5%, -11%
> CC[C@H](C)Cc1cn([C@@H](CCCCNC(=O)OC(C)(C)C)C(=O)NCCCCCCCCCCC(=O)N2CCN(C(=O)OC(C)(C)C)CC2)nn1
    u, -14%
> O=c1cc(CN2CCN(Cc3ccc(F)cc3)C(CCO)C2)[nH]c2ccccc12 (centres undefined)
    -4%, i
> Cc1nnsc1-c1nc2ccccc2n1C(CCc1ccccc1)c1nc2ccccc2[nH]1 (centres undefined)
    -7%, -20%
> CCOC(=O)c1cc(-c2ccccc2)n(CCCC(=O)Nc2cc(C)ccc2OC)c1C
    -14%, -16%
> NC(=O)c1ccccc1NC(=O)COc1ccc(Cl)cc1
    -21%, -6%
> Cc1ccc(N2C(=O)N(CC(=O)Nc3ccc(C)cc3[N+](=O)[O-])C(=O)C2C)cc1 (centres undefined)
    -25%, -14%
> CCOc1ccccc1N1CN(C2CCCCC2)CNC1=S
    -18%, -17%
> COc1ccccc1NC(=O)Cn1c(=O)n(Cc2ccccc2)c(=O)c2c1c1cc(C)ccc1n2C
    -13%, -18%
> C#CCN(C[C@@H]1[C@@H](OC(=O)NC2CC2)[C@@H](OC(=O)NC2CC2)Cn2c(=O)ccc(=O)n21)S(=O)(=O)c1ccc(C)cc1
    u, u
> COCCNC(=O)CSc1nc(N)c(NC(=O)c2ccccc2F)c(=O)[nH]1
    -9%, -13%
> O=C(Cn1ncc2c3ccccc3n(Cc3ccc(F)cc3)c2c1=O)N1CCC2(CC1)OCCO2
    -26%, x
> O=C(c1ccc(C(F)(F)F)cc1)N1CCC(=O)N(C(COCc2ccccc2)Cc2ccccc2)CC1 (centres undefined)
    -22%, -14%
> COc1cccc([C@@H]2CC=C(C(=O)O)[C@H](c3cccc(Cl)c3)N2S(=O)(=O)c2ccc(C)cc2)c1
    -7%, -11%
> Cc1c(NC(=O)Nc2ccc(C(C)(C)C)cc2)c(=O)n(-c2ccccc2)n1C
    -4%, i
> COc1cc(OC)c(OC)cc1CNC(=O)c1ccc(COc2ccccc2)cc1
    -19%, -24%
> Cc1ccc(OCCCCCN2CCOCC2)c(Cl)c1
    -7%, -11%
> CC(C)(O)C1=C[N+](=O)CC=C1
    -9%, -4%
> CCc1ccc(N2CC(C(=O)N3CCCCCC3)CC2=O)cc1 (centres undefined)
    -10%, -7%
> O=C(NCC1(N2CCCCC2)CCCCC1)c1ccc(S(=O)(=O)N2CCCC2)cc1
    -11%, -19%
> CC1CCN(C(=O)COC(=O)c2ccc3c(c2)OCCO3)CC1
    -5%, -21%
> CCc1ccc(NC(=O)CSc2nc3ccccc3c(=O)n2CCCN2CCC(C)CC2)cc1
    u, u
> Cc1ccc(CCN2CC(C(=O)NCCCN3CCN(C)CC3)CC2=O)cc1 (centres undefined)
    -12%, i
> COc1ccccc1CNC(=O)COC(=O)c1cccc(S(=O)(=O)N2CCCCC2)c1
    -8%, -13%
> COc1ccccc1Nc1c2c(nc3ccc(NC(=O)c4ccc(N(C)C)cc4)cc13)CCCC2
    -12%[7.34 µM], -24%[7.34 µM]
